# High-throughput results: PubChem BioAssay, ICCB-Longwood Screening Facility, Harvard Medical School
# PV pol inh: inhibitors of poliovirus RNA polymerase binding and polymerization; 0.66% of 150,000 active; P03300; AID 588519; poliovirus polymerase elongation, fluorescence polarization; stronger effect = lower value; % elongation, % (compound at 16.7 µg/mL); in the data active means % elongation below about 90%; further: some results filed as inactive read as strong as hits
# Target sequence (P03300 1749-2209 limits assumed): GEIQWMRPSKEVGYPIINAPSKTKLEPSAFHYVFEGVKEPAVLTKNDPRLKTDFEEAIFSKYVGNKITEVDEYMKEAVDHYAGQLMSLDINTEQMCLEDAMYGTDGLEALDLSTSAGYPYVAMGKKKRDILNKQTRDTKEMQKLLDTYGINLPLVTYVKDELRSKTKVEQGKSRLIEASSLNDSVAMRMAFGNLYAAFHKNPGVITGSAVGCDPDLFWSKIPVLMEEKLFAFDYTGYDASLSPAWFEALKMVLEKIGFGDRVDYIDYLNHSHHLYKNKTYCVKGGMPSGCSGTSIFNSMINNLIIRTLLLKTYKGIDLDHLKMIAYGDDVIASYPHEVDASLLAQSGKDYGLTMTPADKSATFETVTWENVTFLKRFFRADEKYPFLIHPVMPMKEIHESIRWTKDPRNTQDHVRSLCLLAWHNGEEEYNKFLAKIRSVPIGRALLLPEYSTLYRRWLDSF
# MenB inh: inhibitors of Mycobacterium tuberculosis MenB enzyme; P9WNP5; 0.43% of 100,000 active; inhibition, %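 (about 12 µg/mL by stock and volumes)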; MenB enzyme assay, absorbance read-out; some hits fall short of the stated cut;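 active means mean of two replicates above 30%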;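 further: 0% = no compound and 100% = wells with inactive enzyme; the first replicate is given; strong numbers were not always called active; inactives centre near -10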
# Target sequence (P9WNP5 whole entry, looked up): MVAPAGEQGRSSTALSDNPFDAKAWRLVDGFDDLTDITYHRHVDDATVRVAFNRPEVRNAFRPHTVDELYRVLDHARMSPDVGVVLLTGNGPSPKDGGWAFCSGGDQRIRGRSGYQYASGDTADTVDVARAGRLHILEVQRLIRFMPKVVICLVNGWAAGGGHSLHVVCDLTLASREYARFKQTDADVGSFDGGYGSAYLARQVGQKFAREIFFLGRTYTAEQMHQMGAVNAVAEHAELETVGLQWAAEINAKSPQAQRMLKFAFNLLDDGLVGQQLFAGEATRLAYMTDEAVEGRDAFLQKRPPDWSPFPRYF
# PV pol inh intensity: also measured in PV pol inh; calls as there; % elongation; measured here: total intensity read-out; formula for this scale not given here;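 total fluorescence in place of polarization; lower means less elongation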
# Starred values were filed as active, the others as inactive; / = no result given.
SMILES,PV pol inh,PV pol inh intensity,MenB inh
Cn1c(NC(=O)c2ccco2)c(-c2ccccc2)c(=O)c2ccccc21,/,/,-34
Nc1c(C(=O)NCC2CCCO2)c2nc3ccccc3nc2n1/N=C/c1ccccn1 (centres undefined),/,/,-13
O=C1CCC(=O)N1OCC1CCCN2CCCCC12 (centres undefined),/,/,3
CC(=O)Oc1c[n+]([O-])n(-c2ccccc2)n1,/,/,-13
CCCC(Nc1cc(Cl)cc(Cl)c1)n1nnc2ccccc21 (centres undefined),/,/,-52
N#CC(c1nc2ccccc2nc1N1CCCCC1)S(=O)(=O)c1cccs1 (centres undefined),/,/,-3
O=C(CSc1nnnn1-c1ccccc1)NCCC12CC3CC(CC(C3)C1)C2,/,/,-26
COc1ccc(C(C#N)OC(C)=O)c(OCc2ccccc2)c1OC (centres undefined),/,/,-18
COCCCn1c(-c2cccs2)nc2c(c(=O)c3ccccc3n2C)c1=O,/,/,-10
CN(C)c1ccc(/C=C(\C#N)NC(=O)c2ccccc2)cc1,/,/,-123
CN1C(C(=O)Nc2ccc(F)cc2F)=CC(c2ccco2)=NS1(=O)=O,116,116,/
O=c1c2ccccc2nc(/C=C/c2ccccc2O)n1-c1ccc(Br)cc1,105,109,/
CNC(=O)C1CCC(Cn2c(=O)c3sccc3n(CC(=O)Nc3cc(F)ccc3F)c2=O)CC1 (centres undefined),112,109,/
CCCOc1ccc(Cn2c(=O)sc3ccccc32)cc1,107,110,/
CN(C(=O)CSc1nc2ccccc2[nH]1)c1ccc(F)cc1,112,112,/

# Random excerpt: two records from the list
SMILES,PV pol inh,PV pol inh intensity,MenB inh
CCCC(Nc1cc(Cl)cc(Cl)c1)n1nnc2ccccc21 (centres undefined),/,/,-52
CN(C)c1ccc(/C=C(\C#N)NC(=O)c2ccccc2)cc1,/,/,-123

# The list continues:
SMILES,PV pol inh,PV pol inh intensity,MenB inh
CCCSCCCNC(=O)C1CCCN(C(=O)c2cnn(-c3ccccc3)c2-n2cccc2)C1 (centres undefined),108,113,/
Cc1ccc(C(=O)Nc2cccc(C(=O)OCc3cc(=O)n4c5c(sc4n3)CCCC5)c2)cc1,110,116,/
COC(=O)c1ccc(Cn2nnc3c(=O)[nH]c(C4CCCN(S(=O)(=O)c5ccccc5Cl)C4)nc32)cc1 (centres undefined),107,112,/
CCNC(=O)c1cnc2c(-c3ccccc3)c(C)nn2c1C,114,103,/
CC(=O)c1cccc(NC(=O)C2CCN(c3ncnc4c3nc3n4CCCCC3)CC2)c1,104,105,/
CC1CCN(S(=O)(=O)c2ccc(C(=O)Nc3sc4c(c3C(N)=O)CC(C)(C)NC4(C)C)cc2)CC1,110,113,/
CCCCN(C(=O)CCn1c(=O)oc2ccccc21)c1ccccc1,105,108,/
Cn1c(=NC(=O)c2ccc(S(=O)(=O)N3CCCC3)cc2)sc2cc(F)ccc21,101,95,/
CC(=O)N1CCc2c(sc(NC(=O)CSc3ccc(C)cc3)c2-c2nc3ccccc3s2)C1,108,114,/
CC(C)NC(=O)Cn1nc(N2CCN(c3ccccc3)CC2)ccc1=O,103,105,/
Cc1ccc(CNC(=O)C(C)n2nc(C)n3c(cc4sccc43)c2=O)cc1 (centres undefined),113,113,/
Cc1cc2oc(C(=O)Nc3ccc(S(=O)(=O)N4CCC(C)CC4)cc3)cc(=O)c2cc1C,110,112,/
CSc1ccc(NC(=O)Cn2nnnc2-c2ccccc2F)cc1,108,111,/
CCC(C)NC(=O)c1ccc2c(c1)nc1n2CCCCC1 (centres undefined),104,112,/
CC(C)COc1ccc(C(=O)Nc2cc(-c3ccccc3)no2)cc1,106,104,/
CCCN1CCN(CCCNC(=O)C(CC)n2nc(C)n3c(cc4occc43)c2=O)CC1 (centres undefined),106,109,/
CCOC(=O)CSc1nc2c([nH]c3ccccc32)c(=O)n1-c1ccc(OCC)cc1,107,111,/
CCOc1ccc(-c2cc(C)n3nc(C(=O)Nc4cc(Cl)ccc4O)cc3n2)cc1,102,104,/
Cn1nccc1C(=O)NCc1ccc2c(c1)CCN2C(=O)c1ccccc1,110,106,/
Cc1ccc(C(=O)CSc2nc(-c3ccccc3)nc3c2CCCC3)cc1,104,106,/
O=C(Cn1c(=O)n(Cc2ccc(C(=O)NCc3ccc4c(c3)OCO4)cc2)c(=O)c2ccccc21)Nc1ccccc1F,110,110,/
COc1ccc(CNC(=O)C2CCN(S(=O)(=O)c3cccc4nonc34)CC2)cc1OC,113,116,/
O=C(CSc1nnc(-c2ccncc2)n1-c1ccccc1)Nc1ccc(Br)cc1,100,110,/
CC(=O)N1CCC(N(Cc2ccc(C)o2)C(=O)Nc2cccc(C(F)(F)F)c2)CC1,114,109,/
Cc1ccc(C)c(N2CCN(c3ccc(NC(=O)c4cccs4)cc3C(=O)O)CC2)c1,111,102,/
CCOc1ccccc1CNC(=O)C1CCCN(c2nnc(C)c3c(C)n(-c4ccccc4)nc23)C1 (centres undefined),104,97,/
Cc1cc(O)c(C(c2ccccc2Cl)N2CCCCC2)c(=O)n1Cc1ccco1 (centres undefined),109,117,/
CCn1c(=N)c(C(=O)NCC2CCCO2)cc2c(=O)n3cc(C)ccc3nc21 (centres undefined),113,112,/
Cc1nn(CCC(=O)Nc2cc(F)ccc2F)c(=O)c2nn(-c3ccccc3)c(C)c12,104,106,/
Cc1cc(C)cc(NC(=O)Cn2c(=O)n(Cc3ccc4c(c3)OCO4)c(=O)c3oc4ccccc4c32)c1,108,113,/
CC1=C(C(=O)OC2CCCC2)C(c2ccccc2C(F)(F)F)CC(=O)N1 (centres undefined),109,111,/
N#Cc1cccc(NC(=O)C2CCN(c3cnccn3)CC2)c1,99,97,/
Cc1ccc2c(=O)c(C(=O)c3ccc(F)cc3)cn(CC(=O)NC3CCCCC3)c2n1,108,112,/
COc1cccc(-c2ccc3c(N)c(C(=O)Nc4ccc(Cl)cc4F)sc3n2)c1,106,117,/
Cc1ccc(NS(=O)(=O)c2ccc3c(c2)CCCN3C(=O)C2CCC2)c(C)c1,111,113,/
COc1ccc(OC)c(NC(=O)CSc2nccn2-c2cc(C)cc(C)c2)c1,105,105,/
Cc1ccccc1NC(=O)CSC1=Nc2ccccc2C2=NC(Cc3ccccc3)C(=O)N12 (centres undefined),107,110,/
O=C(c1cccc(Cl)c1)N1CCN(CCc2ccccn2)CC1,101,104,/
Cc1ccc(C)c(CN2C(=O)c3ccccc3S(=O)c3ccc(C(=O)NCc4ccccc4)cc32)c1 (centres undefined),112,107,/
Cc1ccc(-c2nnc(Nc3ccc(F)cc3)c3ccccc23)cc1S(=O)(=O)N1CCN(C)CC1,108,112,/
CCc1ccc(NC(=O)Cn2c(=O)n(-c3cc(OC)c(OC)c(OC)c3)c(=O)c3ccccc32)cc1,104,104,/
CSc1ccc(CNC(=O)c2ccccc2NC(=O)c2nsc3ccccc23)cc1,108,113,/
Cc1ccccc1C(=O)NCC(c1cccnc1)N1CCc2ccccc21 (centres undefined),106,108,/
Cc1ccc(-c2onc(C)c2C)cc1S(=O)(=O)NC1CCCCC1,111,114,/
Cc1cc2c(cc1NC(=O)c1ccccc1Cl)n(C)c(=O)c(=O)n2C,108,115,/

# In the list so far, these contain a cyano group.
SMILES,PV pol inh,PV pol inh intensity,MenB inh
N#CC(c1nc2ccccc2nc1N1CCCCC1)S(=O)(=O)c1cccs1 (centres undefined),/,/,-3
COc1ccc(C(C#N)OC(C)=O)c(OCc2ccccc2)c1OC (centres undefined),/,/,-18
CN(C)c1ccc(/C=C(\C#N)NC(=O)c2ccccc2)cc1,/,/,-123
N#Cc1cccc(NC(=O)C2CCN(c3cnccn3)CC2)c1,99,97,/

# (more compounds)
SMILES,PV pol inh,PV pol inh intensity,MenB inh
COc1ccc(-n2c(SCC(=O)Nc3ccc4c(c3)OCO4)nc3c([nH]c4ccccc43)c2=O)cc1,105,105,/
Cc1ccc(CN2CCC(CNC(=O)c3cc4ccc5cccnc5c4[nH]3)CC2)cc1,109,91,/
COc1ccc(Cc2nc3ccccc3[nH]c2=O)cc1,109,111,/
CCCCN(CC)Cc1ccc(CNS(=O)(=O)c2cc3c(cc2Cl)NC(=O)CO3)o1,100,108,/
Cc1cc(C)c(NC(=O)CCS(=O)(=O)c2cc3c(cc2Cl)NC(=O)CO3)c(C)c1,109,108,/
CN(C(=O)CSc1cn(CC(=O)N2CCCC2)c2ccccc12)c1ccccc1,121,119,/
O=C(Cn1ncc2c(=O)oc3ccccc3c21)NCc1ccc(Cl)cc1,106,107,/
CC(C)OC(=O)c1c(NC(=O)C2c3ccccc3Oc3ccccc32)sc2c1CCCC2,107,106,/
Cc1ccc(NC(=O)CSc2nc3ccc(NC(=O)c4cccs4)cc3s2)c(C)c1,102,107,/
COc1ccccc1CN(Cc1ccco1)c1cnc(S(C)(=O)=O)nc1C(=O)Nc1ccccc1Cl,102,103,/
O=C(Nc1ccc(S(=O)(=O)Nc2ncccn2)cc1)c1cccc(Cl)c1,107,107,/
CCc1cccc(N2C(=O)CS(=O)(=O)C23C(=O)N(Cc2ccc(F)cc2)c2ccc(C)cc23)c1 (centres undefined),109,96,/
CS(=O)(=O)N(Cc1ccccc1)c1ccc(C(=O)Nc2cccc(Cl)c2)cc1,102,106,/
Cc1cccn2c(=O)c(/C=C(\C#N)c3nc4ccccc4s3)c(Oc3ccc(F)cc3)nc12,90,163,/
COc1ccc(CC(=O)NCc2nc3cccnc3n2Cc2ccccc2)cc1,101,99,/

# Gathered by group: the entries above with a CF3 group (2)
SMILES,PV pol inh,PV pol inh intensity,MenB inh
CC(=O)N1CCC(N(Cc2ccc(C)o2)C(=O)Nc2cccc(C(F)(F)F)c2)CC1,114,109,/
CC1=C(C(=O)OC2CCCC2)C(c2ccccc2C(F)(F)F)CC(=O)N1 (centres undefined),109,111,/

# The list goes on:
SMILES,PV pol inh,PV pol inh intensity,MenB inh
CCOc1cc(C(=O)Nc2ccc(-c3nc4cc(C)ccc4o3)cc2)cc(OCC)c1OCC,105,108,/
O=C1CC(=O)Nc2cc(S(=O)(=O)Nc3ccc(F)cc3Cl)ccc2N1,106,100,/
CCOc1ccccc1NC(=O)C(C)Sc1cc(-c2ccccc2)nc(C)n1 (centres undefined),114,114,/
COc1cccc(-n2c(SCC(=O)Nc3cccc(C)c3)nc3c([nH]c4ccccc43)c2=O)c1,108,113,/
COc1ccc(Br)cc1CNC(=O)c1cnc2sc(N3CCCCCC3)nn2c1=O,108,114,/
CC(C)(C)c1ccc(C(=O)NCC(c2ccc(Cl)cc2)N2CCOCC2)cc1 (centres undefined),100,93,/
COc1ccc(CCNc2ncnc3c2cnn3-c2ccc(C)c(Cl)c2)cc1,104,106,/
O=C(CSc1nc2c([nH]c3ccccc32)c(=O)n1-c1cccc(C(F)(F)F)c1)N1CCCC1,104,104,/
O=C(CSc1nc2ccccc2n1Cc1cccc(C(F)(F)F)c1)NCc1ccccc1,109,111,/
CCOC(=O)c1c(C)oc2nc(C)nc(Nc3cccc(OC)c3)c12,108,108,/
Cc1ccc(CSc2cn(CC(=O)N3CCCC3)c3ccccc23)cc1,118,115,/
O=C(Nc1sc2c(c1C(=O)Nc1ccccc1)CCC2)c1ccc(Br)cc1,101,97,/
CC(=O)Nc1ccccc1-c1nc2ccccc2n(Cc2cccc(Br)c2)c1=O,111,111,/
COc1ccc(C)cc1NC(=O)Cn1cc(S(=O)(=O)Cc2ccccc2Cl)c2ccccc21,104,101,/
COc1ccc(-c2nc(SCC(=O)Nc3cccc(C(C)=O)c3)n[nH]2)cc1,113,101,/

# Copied from the list.
# PV pol inh with O=C1CC(=O)Nc2cc(S(=O)(=O)Nc3ccc(F)cc3Cl)ccc2N1 → 106
# PV pol inh with CCOc1cc(C(=O)Nc2ccc(-c3nc4cc(C)ccc4o3)cc2)cc(OCC)c1OCC → 105
# PV pol inh intensity with O=C(CSc1nc2ccccc2n1Cc1cccc(C(F)(F)F)c1)NCc1ccccc1 → 111
# PV pol inh intensity with Cc1ccc(CSc2cn(CC(=O)N3CCCC3)c3ccccc23)cc1 → 115
# PV pol inh with CCOC(=O)c1c(C)oc2nc(C)nc(Nc3cccc(OC)c3)c12 → 108

# New compounds follow.
SMILES,PV pol inh,PV pol inh intensity,MenB inh
O=C(c1ccc(Cl)cc1)N1CCN(CCc2ccncc2)CC1,101,95,/
COc1ccc(OC)c(CNC(=O)CCC(=O)N2Cc3ccccc3Oc3ncccc32)c1,105,87,/
COc1ccc(C(=O)Nc2ccc3c(c2)CCCN3S(=O)(=O)c2ccc(C)cc2)cc1,111,104,/
CCC(=O)N1CC(=O)Nc2ccc(C)cc2C1c1ccc(F)cc1 (centres undefined),108,109,/

# These rows are one share of the data; count on the stated rates, not on these rows.
